Screening data from PubChem BioAssay.
PINK1 modulator = A Quantitative High throughput Screen to Identify Chemical Modulators of PINK1 Expression | PINK1 immunofluorescence, high-content cytometry, 24 h | AID 624263, 2012 | Potency, µM (series often up to 76.6 µM), for the others: at the highest dose activation (PINK1 increase), actives largely listed as activators | 0.2% of 410,000 active; active = well fitted activation curve with a large enough effect; inconclusive = small, poorly fitted or top-dose-only effect; inactive = flat fitted curve, though single readings scatter; cell line not stated here;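 further: potency means the concentration at half of the fitted maximal effect; % of control where 0% means no effect; nearly all actives have a fitted effect of over 65% in size; a mitochondrial uncoupler was the plate control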
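Cells are seeded, rested 12 hours, then given compound at five concentrations or DMSO for 24 hours. After fixation, blocking and antibody staining, PINK1 amount and mitochondrial localization are scored; CCCP serves as control.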
TRPML1 ag = qHTS for Agonists of the Human Mucolipin Transient Receptor Potential 1 (TRPML1) | activation, % (concentration not given with the values) | TRPML1-expressing cells, Ca2+ dye fluorescence, FDSS; host cell line not named in the record; reference of the full effect not given here | 0.12% of 410,000 active | Mucolipin-1 (Homo sapiens), Q9GZU1; in the data active = activation above about 50%; inconclusive = about 30% to 50%; inactive = below about 30%; further: 0% is about no effect; the text of the record puts the active cut at 80%
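Agonist activity was taken from a 110 s kinetic Ca2+ dye read on the FDSS after pinning compounds onto TRPML1-DL cells. The cells were seeded at 1,500/well with Tet inducer, incubated about 16 h, then dye-loaded at room temperature.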
D2 agonist = Beta-Arrestin HTS for Positive Allosteric Modulators of the Human D2 Dopamine Receptor: Agonists. DiscoveRx PathHunter D2 beta-arrestin, luminescence, 90 min; 100% = 57 uM dopamine signal. 0.084% of 360,000 active. activation, % (no concentration beside the values); in the data active = activation above about 40%; inconclusive = about 15% to 40%; inactive = below about 15%; further: compound concentration not given in the record; the text of the record calls up to 30% inactive
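DiscoveRx PathHunter D2 beta-arrestin cells (2,100/well) attached overnight, then compound-stimulated 90 min at 37 C in HBSS/10 mM HEPES/0.1% Tween-20 buffer; beta-galactosidase complementation read by luminescence after 1 h at ambient temperature. Dopamine 57 uM final (EC100) as control.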
Six1-Eya2 blk = qHTS Assay for Inhibitors of the Six1/Eya2 Interaction; AlphaScreen GST-Six1/His-Eya2 binding, biochemical; stronger effect = lower value; control for the full effect not named in the record; activity change, % (concentration not given with the values); 0.56% of 360,000 active; AID 651725, 2012; in the data active = activity change below about -65%; inconclusive = about -30% to -65%; inactive = above about -30%; further: on the % scale 0 is the no-effect control and ±100 the full control effect
Target sequence (O00167 whole entry, looked up): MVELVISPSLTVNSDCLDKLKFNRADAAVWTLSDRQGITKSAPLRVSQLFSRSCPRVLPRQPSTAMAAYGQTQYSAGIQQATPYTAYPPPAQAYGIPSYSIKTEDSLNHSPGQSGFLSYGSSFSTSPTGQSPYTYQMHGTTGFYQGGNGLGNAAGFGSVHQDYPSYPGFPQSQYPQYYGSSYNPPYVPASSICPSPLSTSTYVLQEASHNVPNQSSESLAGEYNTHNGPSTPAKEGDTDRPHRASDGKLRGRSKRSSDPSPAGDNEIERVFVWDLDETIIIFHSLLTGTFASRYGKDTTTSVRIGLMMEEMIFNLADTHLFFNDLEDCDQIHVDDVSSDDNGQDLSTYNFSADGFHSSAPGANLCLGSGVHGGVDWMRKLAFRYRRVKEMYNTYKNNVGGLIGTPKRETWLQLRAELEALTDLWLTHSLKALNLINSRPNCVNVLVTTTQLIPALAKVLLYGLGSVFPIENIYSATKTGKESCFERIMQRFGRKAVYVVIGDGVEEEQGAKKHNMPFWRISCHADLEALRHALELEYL
Target sequence (Q15475 whole entry, looked up): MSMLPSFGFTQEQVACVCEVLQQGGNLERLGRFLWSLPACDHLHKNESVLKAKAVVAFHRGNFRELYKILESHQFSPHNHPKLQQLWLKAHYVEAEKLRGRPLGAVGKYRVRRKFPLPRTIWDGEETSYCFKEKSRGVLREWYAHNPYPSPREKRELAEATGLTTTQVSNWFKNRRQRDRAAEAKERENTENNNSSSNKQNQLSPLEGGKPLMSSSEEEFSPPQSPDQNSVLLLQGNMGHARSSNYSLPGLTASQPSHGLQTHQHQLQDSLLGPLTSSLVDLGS
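Homogeneous AlphaScreen proximity assay pairing GST-Six1 with His-tagged Eya2 (added as 5X mix: 250 nM and 500 nM) in 50 mM Tris pH 8.0, 300 mM NaCl, 1 mM TCEP. Glutathione donor and nickel acceptor beads; 1 h, 37 °C, dark.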
D2 potentiator = Beta-Arrestin HTS for Positive Allosteric Modulators of the Human D2 Dopamine Receptor: Potentiators; D(2) dopamine receptor (Homo sapiens), P14416; DiscoveRx D2 beta-arrestin cells, luminescence, 90 min; 100% = 57 uM dopamine signal; potentiation, % (no concentration beside the values); 0.23% of 360,000 active; AID 624464, 2012; active = potentiation of 50% or more; inconclusive = 30% to 50%; inactive = 30% or less;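 further: compound concentration not given in the record; tested on top of an EC20 dose of dopamine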
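PathHunter beta-arrestin assay in DiscoveRx D2 cells. Compounds were added with an EC20 of dopamine (50 nM final) for 90 min at 37 deg C. Luminescence was read 1 h after detection reagent, with 57 uM dopamine as the EC100 control.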
CtBP-E1A blk = qHTS Assay for Inhibitors of the CtBP/E1A Interaction | CtBP / adenovirus E1A interaction (AlphaScreen) | AlphaScreen GST-E1A/His-CtBP binding, 1536-well; stronger effect = lower value; control for the full effect not named in the record | activity change, % (test concentration not listed) | 0.49% of 340,000 active | AID 651724, 2012; in the data active means activity change below about -65%; inconclusive means about -30% to -65%; inactive means above about -30%; further: on the % scale 0 is the no-effect control and ±100 the full control effect; compound concentration not given in the record
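GST-E1A and His-tagged CtBP (125 nM each as 5X stock) were preincubated with pin-transferred compound for 2 h at 37 °C in the dark, then glutathione donor and nickel acceptor beads were added for 1 h before AlphaScreen reading.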
Starred values were filed as active, the others as inactive; ? = inconclusive; · = not tested or not shown; [ ] = dose if it differs, or a comment.

Value order: TRPML1 ag	D2 potentiator	Six1-Eya2 blk	D2 agonist	CtBP-E1A blk	PINK1 modulator
CC(C)C1OC(CCc2ccccc2)Cc2[nH][nH]c(=O)c21 (configuration not stated)
  -0.8	·	0	·	-8	9.3%
O=C(Nc1ccc(OC(F)(F)F)cc1)c1cnc2n(c1=O)CCS2
  -0.3	-3	9	-3.4	1	0.2%
COc1cccc(CNC(=O)COC(=O)CN2C(=O)NC3(CCCCC3C)C2=O)c1 (configuration not stated)
  -1.1	-6	-3	-1.6	·	-1.2%
CCOC(=O)C1CCCN(C2=NC(=O)/C(=C/c3ccc(OC)c(OC)c3)S2)C1 (configuration not stated)
  1.0	-18	9	11	·	0.8%
COc1cc(OC)c(NC(=O)c2cc(S(=O)(=O)N3CCOCC3)cn2C)cc1Cl
  -0.3	-4	-5	7.3	-17	1.7%
COc1cc(NC(=O)c2cccs2)c(C(=O)OCC(=O)NCc2ccco2)cc1OC
  0.0	-14	?	-0.6	?	14%
COC(=O)c1c(NC(=O)c2ccco2)sc(C(=O)N2CCCC2)c1C
  -0.2	-3	1	-1.4	13	3.4%[38.3 µM]
CC(=O)Nc1cccc(Oc2cc(C#N)c(C#N)cc2N2CCCCCC2)c1
  -0.3	7	-2	-4.6	3	-1.4%
CCCCn1c(/N=C/c2ccc(N(C)C)cc2)nc2ccccc21
  -0.6	-22	-22	-1.0	-6	-1.1%
COc1ccccc1Oc1cn[nH]c1-c1ccc(O)cc1O
  1.8	-9	-7	1.5	·	0.1%
CN(C)S(=O)(=O)c1cc(NC(=O)CN2CCNC(=O)C2)ccc1Cl
  0.2	-4	0	-4.7	2	0.6%
CC(=O)NCC1(c2ccccc2)CCN(CC2COc3ccccc3O2)CC1 (configuration not stated)
  0.7	-2	-4	11	6	0.6%
CC(C)CC1(C)NC(=O)N(Cc2cc([N+](=O)[O-])cc3c2OCOC3)C1=O (configuration not stated)
  0.3	-4	6	2.1	-13	-1.6%
COC(=O)CCC(=O)Nc1ccc2oc3c(c2c1)CCCC3
  -0.5	-8	4	2.4	9	0.5%
Clc1ccc(-c2csc(=Nc3cccnc3)n2CCCn2ccnc2)cc1Cl
  0.3	-19	-24	-1.8	-12	-1.1%
C=CCOc1ccc(C(=O)CC)cc1OC
  -0.5	0	10	0.6	2	20%
CNc1nc(OCC(F)(F)F)nc(N2CCOCC2)n1
  -0.9	10	0	-2.3	3	-1.0%
CCOc1[nH]n(-c2ccc(Cl)cc2)c(=O)c1C=Nc1ccc(Cl)cc1
  -0.3	-17	0	-5.0	5	0.8%
O=C(N/N=C/c1cccc(OC(=O)c2cccc(Br)c2)c1)c1cccnc1
  0.3	1	-7	-1.1	1	?
O=C(Nc1ccc2oc(-c3cccnc3)nc2c1)c1ccco1
  -1.1	-10	-6	-2.1	-4	0.4%
Cn1nnnc1SCC(=O)N1CCN(C(=O)c2ccco2)CC1
  1.1	-5	2	-4.9	·	1.8%
COc1ccc(N2CC(C(=O)Nc3ccc(S(=O)(=O)Nc4nc(C)cc(C)n4)cc3)CC2=O)cc1 (configuration not stated)
  0.1	14	1	1.1	10	·
O=[N+]([O-])c1ccc(Nc2cccc3c2[nH]c2c(-c4ccccc4)nccc23)c([N+](=O)[O-])c1
  3.5	-5	?	-2.5	?	-5.6%
CCOc1ccc(Cn2c(O)cc(=O)[nH]c2=O)cc1
  1.0	14	1	-3.1	7	-1.5%
COc1ccc(C(=O)NNc2cc(C)nc(NNC(=O)c3ccc(OC)cc3)n2)cc1
  -0.3	-1	0	0.2	-2	-0.4%
COc1ccc(N2Cc3cccc(C(=O)N4CCN(C(=O)c5ccco5)CC4)c3C2=O)cc1
  0.1	2	-3	2.1	-5	0.5%
COc1cc(-c2cnc3c(NC(C)=O)cc(-c4cccc(C(=O)NCCO)c4)cn23)cc(OC)c1OC
  -1.0	10	-11	4.8	-7	5.0%
Nc1ccc(C(=O)N/N=C\c2cc(N=Nc3cccc4ccccc34)ccc2O)cc1
  0.0	-17	-21	-6.1	?	-0.8%
Cc1[nH]c2ccccc2c1C=NNC(=O)c1cc(-c2cccnc2)nc2ccccc12
  0.0	-2	-14	-0.9	-13	3.2%
CCCC(C(=O)Nc1ccncc1)c1ccccc1 (configuration not stated)
  1.2	-10	10	-3.4	5	-1.5%
Cc1cc(C)n(CC(C)NCc2cn[nH]c2-c2ccc(C)c(C)c2)n1 (configuration not stated)
  -0.7	-8	2	-1.4	15	-0.1%
COc1ccc(NC(=O)NNC(=O)c2ccc3ccccc3c2O)c(OC)c1
  1.7	2	3	4.8	-3	-0.4%
COc1cccc(C(=O)NCC2CCCN(C(=O)c3ccc(C=O)cc3)C2)c1OC (configuration not stated)
  -0.1	-8	8	-0.7	2	-2.5%
O=C(O)c1cc(N2C(=O)CCC2=O)ccc1NCc1cccnc1
  1.1	-1	-1	1.3	-2	0.0%
O=C(NCc1ccccn1)c1cc(Br)ccc1Cl
  0.1	-4	-2	-3.5	-7	-1.3%
Cc1cccc(CS(=O)(=O)Cc2ccc(C(=O)NCCN3CCCCC3C)o2)c1 (configuration not stated)
  -0.4	-34	-3	-1.1	1	1.6%
O=C(COC(=O)c1cccnc1SCC(=O)NCc1ccccc1)NCc1ccccc1
  1.2	-14	20	-5.0	0	3.4%
CCOC(=O)c1ccc(NC(=O)Cn2nnc3ccccc32)cc1
  1.6	5	0	-1.3	-3	5.5%
Cc1ccc(S(=O)(=O)NCC(=O)N(CC(=O)NC2CCCC2)CC2CCCO2)cc1 (configuration not stated)
  -1.2	-2	16	-4.6	0	-0.5%
COc1ccc(S(=O)(=O)N2CCOCC2)cc1NC(=O)COC(=O)c1ccc([N+](=O)[O-])s1
  1.1	16	-6	12	-8	-5.1%
FC(F)Oc1ccc(-c2c[n+]3c(n2-c2ccccc2)CCCCC3)cc1
  -0.9	-15	0	-3.3	·	1.1%
COC(=O)c1cc(C(=O)Nc2ccc(Cl)cn2)cc([N+](=O)[O-])c1
  2.8	-4	-3	0.1	3	-1.5%
O=C(c1ccccc1)N1CCN(C(=O)c2ccccc2Br)CC1
  -0.5	-12	0	-1.6	1	-0.9%
Cc1ccc(S(=O)(=O)c2cc3ccccc3oc2=Nc2ccc3c(c2)OCCO3)cc1
  -0.3	0	0	-4.2	-1	0.7%
COC(=O)c1ccccc1NC(=O)Nc1ncccc1C
  0.3	-8	11	-6.5	·	1.0%
COc1ccc(NC(=O)CSc2ccccn2)c([N+](=O)[O-])c1
  0.6	-5	-9	6.6	-5	-0.3%
CCn1c(C)nc2cc(C(=O)N/N=C/c3ccccc3C)ccc21
  -0.5	3	0	-2.7	4	2.3%
CCOC(=O)C1CCCN(C(=O)c2ccc(CS(=O)(=O)Cc3ccccc3C)o2)C1 (configuration not stated)
  -0.7	-14	-3	-2.9	9	-1.8%
CC(C)Cn1c(Cc2ccccc2)n[nH]c1=S
  0.4	3	1	-6.3	4	1.7%[38.3 µM]
Cc1ccc(-c2ccc(CCC(=O)O)n2NC(N)=S)cc1
  -0.1	-20	12	0.2	2	0.4%
CCC(C)c1ccccc1N1CC(C(=O)N(C)CC(=O)Nc2cccc(F)c2)CC1=O (configuration not stated)
  1.6	-13	14	-2.5	9	1.9%
CCCCn1c(SCC(=O)OCC)nc2c1c(=O)[nH]c(=O)n2C
  -0.4	0	0	-4.8	-2	0.3%
CCNC(=O)NC(=O)C(C)OC(=O)c1oc2ccccc2c1CSC1CCCCC1 (configuration not stated)
  -1.6	6	0	-4.9	-6	5.5%
NC(=O)C1CCN(C(=O)COCc2cc(-c3ccc4c(c3)OCO4)on2)CC1
  0.1	-6	1	-5.3	1	-0.1%
O=C(CN1CCOCC1)Nc1ccc(Br)cc1
  -0.7	-6	3	-1.8	10	0.7%
Cc1cc(C(=O)COc2ccc([N+](=O)[O-])cc2)c(C)n1C1CC1
  2.0	-7	-16	-0.9	-10	4.2%
O=C(O)c1ccc(NS(=O)(=O)c2ccc(NC(=O)c3ccccc3Cl)cc2)cc1
  0.2	-2	7	-1.8	9	1.5%
CC1CN(c2ccc([N+](=O)[O-])cn2)CC(C)O1 (configuration not stated)
  0.7	-5	0	1.4	7	1.2%
Cc1ccc(NS(=O)(=O)c2ccc(C(=O)OCC(=O)N3CCCCC3)cc2)cc1
  3.8	-5	-4	1.4	3	1.6%
Cc1cc(Cl)ccc1OCCn1cncn1
  0.3	-2	10	-0.4	·	-1.4%

Sorted by value in Six1-Eya2 blk (falling): 4 of the compounds above.
| molecule | D2 potentiator | Six1-Eya2 blk | D2 agonist | CtBP-E1A blk |
| --- | --- | --- | --- | --- |
| Cc1cc(Cl)ccc1OCCn1cncn1 | -2 | 10 | -0.4 | · |
| CCn1c(C)nc2cc(C(=O)N/N=C/c3ccccc3C)ccc21 | 3 | 0 | -2.7 | 4 |
| Cc1ccc(NS(=O)(=O)c2ccc(C(=O)OCC(=O)N3CCCCC3)cc2)cc1 | -5 | -4 | 1.4 | 3 |
| Cc1cc(C(=O)COc2ccc([N+](=O)[O-])cc2)c(C)n1C1CC1 | -7 | -16 | -0.9 | -10 |

Additional records:
Value order: TRPML1 ag	D2 potentiator	Six1-Eya2 blk	D2 agonist	CtBP-E1A blk	PINK1 modulator
O=C(NNS(=O)(=O)c1ccccc1[N+](=O)[O-])c1ccccc1[N+](=O)[O-]
  0.1	15	7	-6.1	8	3.5%
Cc1ccc(CN2CCc3c(OCc4ccc(F)cc4)cccc3C2=O)cc1
  2.1	-20	8	-4.5	13	13%
NC(=O)c1ccc(NCCc2ccccc2)c([N+](=O)[O-])c1
  0.4	1	-23	-2.8	-3	2.1%
C=CCSC1=C(C#N)C2(CCCCC2)C(C#N)C(=O)N1 (configuration not stated)
  1.5	-13	10	0.1	7	-0.9%
CCC(C)(C)n1nnnc1C(c1ccccc1F)N1CCN(C(=O)c2ccco2)CC1 (configuration not stated)
  -0.5	4	5	0.9	-9	1.0%
O=C1CCCN2N=C(SCC(=O)Nc3cccc(Cl)c3)SC2=N1
  0.8	-4	-18	-4.2	-21	2.9%
CCCN1CNc2c(c(=O)[nH]c(=S)n2CCc2ccccc2)C1
  0.6	-3	2	-3.1	-2	-0.3%
CCOC(=O)c1nnn(-c2nonc2-c2ccccc2)c1C
  0.8	-13	4	-6.2	14	0.4%
COCCCNC(=S)NNC(=O)c1csc(C)n1
  -0.7	-14	-78*	-4.4	·	12%
CCn1c(-c2ccc(F)cc2)n[nH]c1=S
  ?	-16	2	-6.8	-4	-0.4%
